# Menin-MLL FL inh: qHTS Assay for Inhibitors Targeting the Menin-MLL Interaction in MLL Related Leukemias: Competition With Fluorescein Labeled MLL-derived Peptide. 290,000 tested, under 10 active. Fluorescence polarization, fluorescein-MLL peptide displacement from menin. FP activity change, % at 61.4 µM; inconclusive = falling polarisation curve, or a change in total fluorescence; inactive = total fluorescence flat and polarisation flat or rising; no compound was filed as active; the % refers to the polarisation; negative = inhibition;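 also: % of control where 0% means no effect; inhibitors lower the polarisation; unlabelled MLL peptide was the positive control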
# TRPML1 blocker: qHTS for Inhibitors of the Human Mucolipin Transient Receptor Potential 1 (TRPML1) | Mucolipin-1 (Homo sapiens), Q9GZU1 | TRPML1-inducible cells, Ca2+ dye fluorescence, FDSS; stronger effect = lower value; inhibition of EC80 agonist-evoked calcium signal | activity change, negative = inhibition, % (concentration not given with the values) | 390,000 tested, 0.02% active; in the data active means activity change below about -50%; inconclusive means about -30% to -50%; inactive means above about -30%;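 also: stimulus is agonist 54-4 at its EC80 concentration; % is scaled to controls: 0 for no effect and ±100 for the full control effect; compound concentration not given in the record; the text of the record puts the active cut at -80%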
# Target sequence (Q9GZU1 whole entry, looked up): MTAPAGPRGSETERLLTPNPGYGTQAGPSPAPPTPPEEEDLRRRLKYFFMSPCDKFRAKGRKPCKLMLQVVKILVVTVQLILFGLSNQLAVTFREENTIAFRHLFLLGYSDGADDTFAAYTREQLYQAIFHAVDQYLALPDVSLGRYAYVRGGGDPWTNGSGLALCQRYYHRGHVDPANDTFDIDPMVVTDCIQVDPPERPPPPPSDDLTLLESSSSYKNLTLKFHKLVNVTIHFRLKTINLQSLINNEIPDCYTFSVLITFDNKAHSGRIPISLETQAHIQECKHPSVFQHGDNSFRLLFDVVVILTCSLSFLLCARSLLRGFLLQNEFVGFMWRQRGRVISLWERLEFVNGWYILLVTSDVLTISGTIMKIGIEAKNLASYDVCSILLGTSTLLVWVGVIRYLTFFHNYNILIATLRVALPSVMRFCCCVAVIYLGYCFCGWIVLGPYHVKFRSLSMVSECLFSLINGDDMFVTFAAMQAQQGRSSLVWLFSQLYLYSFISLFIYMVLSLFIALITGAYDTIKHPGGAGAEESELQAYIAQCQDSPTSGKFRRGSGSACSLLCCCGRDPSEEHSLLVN
#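 Calcium fluorescence in TRPML1-DL cells induced overnight with Tet: a 110 s read after compound pin addition, then a 110 s antagonist read after challenge with 54-4 at 4 uM final (EC80).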
# ClpP mod: qHTS Assay for Activators of ClpP; purified B. subtilis ClpP, FRET peptide cleavage, 20 min; Potency, µM (doses to about 57.5 µM), without a hit: at the highest dose activity change, negative = active; 340,000 tested, 1.9% active; AID 651965, 2013; active = well fitted falling curve with a large enough effect; inconclusive = small, poorly fitted or top-dose-only effect; inactive = no such curve, though single readings can be large or run the other way; also: potency is read from the fitted curve at half-maximal effect; the source files actives as falling curves though it sought activators and does not explain the sign; nearly all actives have a fitted effect of over 65% in size; many hits overshoot -100%
# Target sequence (P80244 whole entry, looked up): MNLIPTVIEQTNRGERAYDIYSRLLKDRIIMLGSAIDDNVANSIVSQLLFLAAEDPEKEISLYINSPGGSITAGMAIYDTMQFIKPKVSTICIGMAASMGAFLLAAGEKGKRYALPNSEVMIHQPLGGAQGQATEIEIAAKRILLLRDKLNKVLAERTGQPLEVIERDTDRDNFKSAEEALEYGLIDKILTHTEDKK
#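 Purified B. subtilis ClpP, 10 microg/mL final in Tris/HCl pH8 with KCl, BSA, glycerol and Tween-20, cleaved an Abz/nitrotyrosine-quenched decapeptide. Fluorescence (ex 320, em 430) was read at 0 and 20 min at room temperature. Delta was normalized to 5.8 microM ADEP and DMSO/no-enzyme controls.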
# TRPML1 ag: qHTS for Agonists of the Human Mucolipin Transient Receptor Potential 1 (TRPML1) | AID 624414, 2012 | 410,000 tested, 0.12% active | TRPML1-expressing cells, Ca2+ dye fluorescence, FDSS; host cell line not named in the record; reference of the full effect not given here | activation, % (test concentration not listed) | Mucolipin-1 (Homo sapiens), Q9GZU1; in the data active = activation above about 50%; inconclusive = about 30% to 50%; inactive = below about 30%; also: 0% is about no effect; the text of the record puts the active cut at 80%
#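 Cells: TRPML1-DL, 1X Tet inducer, ~16 h at 37 degrees C/5% CO2. Dye: ABD Ca8 no-wash + quencher, 45-90 min RT. Read: 10 s baseline, compound add, 110 s agonist phase; 54-4 EC80 (4uM final), 110 s antagonist phase.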
# gsp agonist: qHTS for Agonist of gsp, the Etiologic Mutation Responsible for Fibrous Dysplasia/McCune-Albright Syndrome: qHTS | gsp mutant cells, cAMP HTRF, 30 min; control for the full effect not named in the record | Potency, µM (titrated, usually from 76.9 µM), for the others: top-dose activation (cAMP increase), actives largely listed as activators | 340,000 tested, 0.13% active | AID 624287, 2012; active = well fitted activation curve with a large enough effect; inconclusive = small, poorly fitted or top-dose-only effect, or another doubt; inactive = no such curve, though single readings can be large or run the other way; cell line not stated here;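 also: phosphodiesterase inhibitor Ro 20-1724 added with compounds to block cAMP breakdown; potency is read from the fitted curve at half-maximal effect; nearly all actives have a fitted effect of over 60% in size; about a fifth of the inactives were tested at one dose only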
#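 Cells in DMEM/10% FBS with G418 were pretreated with compounds in DMSO plus […] (300 uM stock) for 30 min at 37C. cAMP was measured by HTRF (cAMP-d2 plus anti-cAMP antibody-K) after 30 min at room temperature.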
# gsp antagonist: qHTS for Antagonists of gsp, the Etiologic Mutation Responsible for Fibrous Dysplasia/McCune-Albright Syndrome: qHTS; gsp-mutant cells, cAMP HTRF, 30 min; control for the full effect not named in the record; Potency, µM (titrated, usually from 76.9 µM), inactives show at the top dose activity change, negative = inhibition, usual class: inhibitors; 340,000 tested, 0.4% active; AID 624288, 2012; active = falling curve of any shape with a large fitted effect; inconclusive = falling curve, mostly with a smaller effect; inactive = flat or rising curve; cell line not stated here;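 also: intracellular cAMP measured with PDE inhibitor Ro 20-1724 present during compound exposure; potency is read from the fitted curve at half-maximal effect; % is scaled to controls: 0 for no effect and ±100 for the full control effect; nearly all actives have a fitted effect of over 65% in size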
#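 G418-selected cells were plated in DMEM/10% FBS for 16-24 h at 37C, then treated with compounds plus the PDE inhibitor […] (300 uM solution added) for 30 min at 37C. Intracellular cAMP was measured by HTRF after 30 min lysis at room temperature.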
# Numbers without * were called inactive; ? = inconclusive; / = no result given; [ ] = remark or other dose.
no.	canonical_smiles	Menin-MLL FL inh	TRPML1 blocker	ClpP mod	TRPML1 ag	gsp agonist	gsp antagonist
1	O=C(Nc1ccn(Cc2ccccc2F)n1)c1ccc(COc2cccc(Br)c2)cc1	2.1	33	-14%	7.4	-18%	2%
2	Cc1cc(C)c(OCC(=O)NCC(c2ccco2)N2CCCCC2)c(C)c1 (configuration not stated)	/	-10	-1.5%	1.2	-16%	8%
3	CCc1nnc(NC(=O)/C=C/c2ccco2)s1	1.5	1	-3.0%	0.7	17%	-10%
4	COc1cc(OC)c(N2CC34C=CC(O3)C(C(=O)O)C4C2=O)cc1Cl (configuration not stated)	2.2	15	-1.9%	2.0	8%	11%
5	CC1CCCC(C)N1C(=O)c1cc(F)c(F)cc1Cl (configuration not stated)	7.8	-10	-0.5%	-0.2	11%	19%
6	CC(=O)Nc1ncc(N=Nc2cccc(C(F)(F)F)c2)s1	-2.0	-1	/	-0.1	2%[15.4 µM]	1%
7	CC(=O)c1ccc(NC(=O)CCNS(=O)(=O)c2cccc3nonc23)cc1	-0.8	-5	3.4%	-0.5	0%	?
8	COc1ccccc1CNC(=O)C1CC2Cn3c(nc4cc(C)c(C)cc43)C2N1C (configuration not stated)	/	-3	-6.8%	-1.0	/	1%
9	CC(C)(C)NS(=O)(=O)c1ccc(NC(=S)NC(=O)C2CC2)cc1	/	-1	0.7%	2.1	2%	7%
10	O=C(/C=C/c1ccccc1)NCCSCc1ccc(Cl)cc1	8.8	4	-20%	0.0	-3%	5%
11	Cc1nc2nc(SCC(=O)NCCc3ccccc3)nn2c(C)c1Cc1c(F)cccc1Cl	/	-4	-3.5%	2.0	/	/
12	O=C(C1CC1)N1CCc2cc(Br)cc(S(=O)(=O)N3CCN(c4ccccc4)CC3)c21	/	28	-2.3%	-0.4	/	/
13	CCc1ccc(-c2nc(CN3CCC(C(=O)NCCc4ccc(OC)c(OC)c4)CC3)c(C)o2)cc1	-1.2	9	-2.5%	-0.8	-11%	-4%
14	CC(Oc1ccccc1F)c1nnc(SCC(=O)NCc2ccc3c(c2)OCO3)o1 (configuration not stated)	/	16	1.6%	-0.7	11%	-14%
15	CCOC(=O)C1=C[C@@H](CC)N(S(=O)(=O)c2ccc(C)cc2)[C@H]1c1ccccc1	/	6	-1.7%	2.8	/	/
16	Cc1ccc(NC(=O)c2sc3ccccc3c2Cl)nc1	-1.6	6	-12%	0.6	23%	7%
17	COc1cc(C(=O)NNC(=O)CNC(=O)C2CCCCC2)ccc1OC(C)C	/	-2	/	0.8	-17%	9%
18	CCOc1cc(CN2CCCCCC2)ccc1OC	1.3	1	-2.2%	-0.1	-45%[15.4 µM]	4%
19	CCOC(=O)N1CCc2c(sc(NCc3ccc(OC)c(Br)c3)c2C(=O)Nc2cc(OC)ccc2OC)C1	/	-3	-1.2%	0.2	/	/
20	C/C(=N\OCC(=O)NC12CC3CC(CC(C3)C1)C2)c1cc2ccccc2o1	2.4	22	/	2.5	-5%	?
21	O=c1c2ccccc2[nH]c(=S)n1CCCN1CCN(c2ccccc2F)CC1	-5.1	-8	-4.2%	-0.3	-1%	10%
22	CCOC(=O)c1ccc(NCc2ccncc2)cc1	/	-5	-8.5%	0.6	16%	-12%
23	COc1cccc(NC2C=CS(=O)(=O)C2)c1 (configuration not stated)	0.0	2	-28%	0.7	-10%	9%
24	Cc1cc(N2C(=O)C(O)=C(C(=O)c3cc4ccccc4o3)C2c2cccc(Cl)c2)no1 (configuration not stated)	/	23	/	0.8	97%[15.4 µM]	19%
25	CCC(=O)NC(C)C(c1cccs1)N1CCN(Cc2ccccc2)CC1 (configuration not stated)	7.0	0	-2.2%	0.1	?	7%
26	COc1ccccc1N1CCN(CC(=O)c2ccc(F)cc2)CC1	6.1	/	2.0%	/	12%	5%
27	COc1ccc(-c2nc3ccccc3s2)cc1NC(=O)c1cccc([N+](=O)[O-])c1C	/	-11	-8.8%	0.5	/	/
28	C#CCOCCOCCOCCNc1nc(N2CCN(C(=O)[C@H](C(C)C)n3cc(CCO)nn3)CC2)nc(N2CCN(C(=O)[C@H]([C@@H](C)CC)n3cc(CCC(=O)O)nn3)CC2)n1	/	31	-0.3%	0.2	/	10%
29	CCCN(CCC)S(=O)(=O)c1ccc(C(=O)Nc2nc3c(s2)CCc2ccccc2-3)cc1	-2.6	2	-28%	0.1	?	4%
30	O=C(Nc1ccccc1)Nc1ccc(Oc2cccnc2)nc1	6.3	4	-0.5%	-0.4	-8%[15.4 µM]	1%
31	CCC(=O)Nc1ccc(Cl)c(NC(=S)NC(=O)COc2ccccc2)c1	3.2	10	-0.8%	2.5	42%	-20%
32	CC(=O)c1c(C)[nH]c(C(=O)CSc2nnc(-c3ccco3)n2Cc2ccccc2)c1C	0.1	0	68%	2.3	8%	?
33	COc1ccc(C(=O)O)cc1S(=O)(=O)Nc1ccc2cn[nH]c2c1	/	-13	1.4%	0.0	10%[15.4 µM]	7%
34	Cc1cccc(C)c1NC(=O)C1(N2C(=O)CC2c2ccccc2)CCCCC1 (configuration not stated)	-1.8	4	/	-0.5	8%	-9%
35	Cc1ccc(CNC(=O)C(=O)NCC(c2cccs2)S(=O)(=O)c2ccccc2)cc1 (configuration not stated)	/	9	0.9%	2.4	/	/
36	O=C(NC12CC3CC(CC(C3)C1)C2)N1CCN(c2ncccn2)CC1	-1.9	-4	-2.2%	-0.2	27%	-3%
37	O=C(N/N=C/c1ccc(Br)cc1)c1ccc(Br)o1	-0.5	-1	-2.2%	1.2	7%	-1%
38	CCCOc1ccc(/C(O)=C2\C(=O)C(=O)N(c3ccccn3)C2c2ccccc2F)cc1C (configuration not stated)	-3.6	-18	/	2.7	?	-6%
39	Cc1cc(OCC(=O)NCCc2cccc(F)c2)c2c(C)cc(=O)oc2c1	/	-4	3.9%	-0.5	10%	-8%
40	COc1ccc(NC(=O)C(CCSC)NC(N)=O)cc1NS(=O)(=O)c1ccc(F)cc1 (configuration not stated)	5.4	-5	0.2%	2.8	-48%[inhibitor]	0%
41	Cc1ccc(S(=O)(=O)NCCSCc2ccco2)cc1	0.1	-9	/	2.6	-20%[15.4 µM]	-4%
42	CC(=O)Nc1ccc(N=Cc2c(O)ccc3ccccc23)cc1	28	-3	-2.7%	3.6	2%	-10%
43	COc1ccc(/C=C2/C(=N)N3N=C(CC(=O)N4CCCC4)SC3=NC2=O)cc1OC	6.0	-4	-2.8%	-0.4	-34%	-11%
44	CCOC1(C(F)(F)F)NC(=O)N(Cc2ccc(OC)cc2)C1=O (configuration not stated)	-7.8	9	-1.3%	-0.1	?	3%
45	COc1cccc(N2CC(O)=C(c3nc4ccccc4s3)C2=N)c1	3.9	-9	-9.5%	-0.2	?	1%
46	CCO[C@H]1OC(C(=O)N2CCN(Cc3ccc4c(c3)OCO4)CC2)=C[C@@H](c2csc3ccccc23)[C@@H]1CCCO	-4.0	25	-2.2%	0.2	/	-25%
47	C[C@H]1CN=C(N(C)C)N1CCCC1CCCCC1	/	-8	0.0%	-0.2	/	14%
48	CN=C(Nc1cc(C)nn1CCC#N)c1ccccc1F	1.1	-2	-3.2%	0.2	-35%[inhibitor]	-3%
49	O=C(c1cc2n(n1)C(C(F)(F)F)CC(c1ccc(F)cc1)N2)N1CCCC1 (configuration not stated)	2.5	9	0.6%	1.7	-9%	-13%
50	O=C(O)CCC(=O)N1CCN(S(=O)(=O)c2cccs2)CC1	/	-14	-0.6%	-0.3	-16%	-3%
51	O=C(Cn1c(NCCCO)nc2ccccc21)c1ccc(Cl)cc1Cl	4.5	-17	/	0.2	-42%[inhibitor]	19%
52	O=C(NCc1cccc(Cl)c1)c1ccncc1	/	58	3.2%	0.0	26%	20%
53	O=[N+]([O-])c1ccc(S(=O)(=O)Nc2ccc(-c3ccc(N4CCOCC4)nn3)cc2)cc1	/	-3	1.2%	2.7	13%	?
54	Cc1nc(-c2ccc(-n3nncc3-c3ccco3)cc2)cs1	0.7	-2	/	-0.2	17%[15.4 µM]	-11%
55	Cc1cc(/C=C2\C(=N)N3N=C(CC(=O)N4CCOCC4)SC3=NC2=O)c(C)n1-c1ccccc1	/	40	-3.1%	0.1	0%	-8%
56	C/C(N)=C(/C#N)C(=O)CSc1nc2ccccc2[nH]1	-1.7	20	-5.4%	0.9	-55%[inhibitor]	-1%

# Next records.
no.	canonical_smiles	Menin-MLL FL inh	TRPML1 blocker	ClpP mod	TRPML1 ag	gsp agonist	gsp antagonist
57	COc1ccc(C2NC(=O)NC(C)=C2C(=O)OC2CCC(C)CC2)cc1 (configuration not stated)	0.9	/	0.4%	/	-9%	-25%
58	O=C(Cn1cccc1C(=O)c1ccccc1)NCc1cccnc1	0.7	-14	-0.1%	1.7	-1%	-9%
59	CCn1cc(C(=O)NCCCN2CCCC2)c(=O)c2cc(S(=O)(=O)N3CCc4ccccc4C3)ccc21	11	2	0.8%	0.8	1%	-4%
60	CC(C)[C@H](N)C(=O)NC[C@H]1CC[C@H](C(=O)N[C@@H](Cc2ccccc2)C(=O)O)CC1	1.2	8	-1.3%	-1.0	3%[15.4 µM]	-10%
61	COc1ccccc1NC(=O)CC(NCc1ccccc1)C(=O)O (configuration not stated)	-2.5	27	-3.9%	0.4	-52%[inhibitor]	7%
62	COc1ccc(-c2cc(C(F)(F)F)n3nc(C(=O)NCC45CC6CC(CC(C6)C4)C5)cc3n2)cc1OC	/	-15	0.8%	0.3	/	/
63	CCC(C)NC(=S)NNC(=O)c1ccncc1 (configuration not stated)	2.1	4	/	0.3	13%	7%
64	CCOc1ccc(-c2cccc(NC(=O)COc3ccc(Cl)cc3)c2)nn1	4.2	11	-0.1%	1.6	-7%	?
65	C/C(=N\N(Cc1ccccc1)c1ccccc1)c1ccncc1	-0.9	16	/	1.1	-59%[inhibitor]	-16%
66	COc1ccc(OC)c(NC(=O)CN2CCc3ccccc3C2)c1	-0.3	-2	/	1.5	-3%[15.4 µM]	-15%
67	COc1ccc(C)cc1NC(=O)NCCn1nnc2cc(S(=O)(=O)N(C)C)ccc21	/	16	-2.5%	-0.2	/	/

# Compound activity deposited in PubChem by National Center for Advancing Translational Sciences (NCATS).
